CtBP-E1A inh = qHTS Assay for Inhibitors of the CtBP/E1A Interaction; AlphaScreen GST-E1A/His-CtBP binding, 1536-well; active compounds read low; control for the full effect not named in the record; AID 651724, 2012; activity change, % (no concentration beside the values); hit rate 0.49% among 340,000; in the data active means activity change below about -65%; inconclusive means about -30% to -65%; inactive means above about -30%; also: % is scaled to controls: 0 for no effect and ±100 for the full control effect
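Steps: dispense buffer (Tris pH 8.0, NaCl 300 mM, TCEP 1 mM, BSA, Tween 20); add 5X protein mix (GST-E1A, His-CtBP, 125 nM each); pin 23 nL compound; 2 h at 37 °C, dark; add 5X beads (50 ug/mL); 1 h; read.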
TRPML1 agonist = qHTS for Agonists of the Human Mucolipin Transient Receptor Potential 1 (TRPML1) | Mucolipin-1 (Homo sapiens), Q9GZU1 | TRPML1-expressing cells, Ca2+ dye fluorescence, FDSS; host cell line not named in the record; reference of the full effect not given here | activation, % (test concentration not listed) | hit rate 0.12% among 410,000 | AID 624414, 2012; in the data active = activation above about 50%; inconclusive = about 30% to 50%; inactive = below about 30%; also: 0% is about no effect; the text of the record puts the active cut at 80%
Target sequence (Q9GZU1 whole entry, looked up): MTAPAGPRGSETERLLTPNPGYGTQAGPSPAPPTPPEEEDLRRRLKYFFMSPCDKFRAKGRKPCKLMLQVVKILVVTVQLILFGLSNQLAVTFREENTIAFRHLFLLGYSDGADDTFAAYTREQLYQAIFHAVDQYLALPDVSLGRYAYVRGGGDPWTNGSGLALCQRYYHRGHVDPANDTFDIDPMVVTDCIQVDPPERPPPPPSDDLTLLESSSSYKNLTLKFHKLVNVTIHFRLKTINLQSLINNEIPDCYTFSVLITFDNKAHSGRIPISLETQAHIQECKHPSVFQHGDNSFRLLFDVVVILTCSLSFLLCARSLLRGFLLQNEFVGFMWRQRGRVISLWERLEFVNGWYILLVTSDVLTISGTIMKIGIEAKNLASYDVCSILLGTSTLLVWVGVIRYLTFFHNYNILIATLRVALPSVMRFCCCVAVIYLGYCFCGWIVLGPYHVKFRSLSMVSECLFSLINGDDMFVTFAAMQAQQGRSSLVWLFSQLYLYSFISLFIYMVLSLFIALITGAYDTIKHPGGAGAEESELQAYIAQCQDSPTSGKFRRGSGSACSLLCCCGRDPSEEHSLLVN
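TRPML1-DL cells, Tet-induced overnight (~16 h, 37 degrees C), loaded 45-90 min at room temperature with Ca8 no-wash calcium dye plus quencher. FDSS fluorescence: 10 s baseline, compound pin-transfer, 110 s agonist read, then EC80 54-4 (4uM final) and 110 s antagonist read.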
PINK1 expr mod = A Quantitative High throughput Screen to Identify Chemical Modulators of PINK1 Expression | PINK1 immunofluorescence, high-content cytometry, 24 h | AID 624263, 2012 | hit rate 0.2% among 410,000 | Potency, µM (highest dose often 76.6 µM), without a hit: at the top dose activation (PINK1 increase), usual class: activators; active = well fitted activation curve with a large enough effect; inconclusive = small, poorly fitted or top-dose-only effect; inactive = flat fitted curve, though single readings scatter; cell line not stated here;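 also: potency is read from the fitted curve at half-maximal effect; % of control where 0% means no effect; nearly all actives have a fitted effect of over 65% in size; a mitochondrial uncoupler was the plate control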
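Stable cell line, 250 cells/well, 12 h attachment; compounds pinned at 5 concentrations, 24 h; CCCP control. Fixed with nuclear dye, primary antibodies 12 h at 10 degrees C, secondary plus cell stain; laser-scanning cytometer read.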
Six1-Eya2 inh = qHTS Assay for Inhibitors of the Six1/Eya2 Interaction. AID 651725, 2012. hit rate 0.56% among 360,000. Homeobox protein SIX1 (Homo sapiens) + Protein phosphatase EYA2 (Homo sapiens), …. AlphaScreen GST-Six1/His-Eya2 binding, biochemical; active compounds read low; control for the full effect not named in the record. activity change, % (concentration not given with the values); in the data active = activity change below about -65%; inconclusive = about -30% to -65%; inactive = above about -30%; also: % is scaled to controls: 0 for no effect and ±100 for the full control effect
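AlphaScreen luminescence read after one hour at 37 °C in darkness. Pin-transferred compounds met GST-Six1 and His-Eya2 protein (5X stock 250 nM/500 nM) plus glutathione donor and Ni-chelate acceptor beads (5X, 50 ug/mL).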
D2 potentiator = Beta-Arrestin HTS for Positive Allosteric Modulators of the Human D2 Dopamine Receptor: Potentiators. D(2) dopamine receptor (Homo sapiens), P14416. DiscoveRx D2 beta-arrestin cells, luminescence, 90 min; 100% = 57 uM dopamine signal. potentiation, % (no concentration beside the values). hit rate 0.23% among 360,000; active = potentiation of 50% or more; inconclusive = 30% to 50%; inactive = 30% or less;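 also: compound concentration not given in the record; tested on top of an EC20 dose of dopamine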
Target sequence (P14416 whole entry, looked up): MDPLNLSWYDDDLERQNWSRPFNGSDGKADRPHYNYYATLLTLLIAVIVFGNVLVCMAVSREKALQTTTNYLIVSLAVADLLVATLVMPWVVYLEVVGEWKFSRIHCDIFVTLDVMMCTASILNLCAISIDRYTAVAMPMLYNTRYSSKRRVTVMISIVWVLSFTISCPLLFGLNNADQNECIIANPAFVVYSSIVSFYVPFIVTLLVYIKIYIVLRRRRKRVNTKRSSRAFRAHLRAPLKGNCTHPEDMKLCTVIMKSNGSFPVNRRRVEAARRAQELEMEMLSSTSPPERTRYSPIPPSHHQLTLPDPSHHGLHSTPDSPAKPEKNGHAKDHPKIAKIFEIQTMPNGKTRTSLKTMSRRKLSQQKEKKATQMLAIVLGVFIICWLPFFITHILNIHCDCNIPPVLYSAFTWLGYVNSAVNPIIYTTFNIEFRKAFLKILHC
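PathHunter D2 cells, attached overnight at 37 deg C, received compound in DMSO plus dopamine at EC20 (50 nM final) for 90 min at 37 deg C. Beta-arrestin recruitment was read as luminescence after 1 h with detection reagent at ambient temperature.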
D2 ag = Beta-Arrestin HTS for Positive Allosteric Modulators of the Human D2 Dopamine Receptor: Agonists; hit rate 0.084% among 360,000; DiscoveRx PathHunter D2 beta-arrestin, luminescence, 90 min; 100% = 57 uM dopamine signal; activation, % (no concentration beside the values); in the data active = activation above about 40%; inconclusive = about 15% to 40%; inactive = below about 15%; also: compound concentration not given in the record; the text of the record calls up to 30% inactive
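DiscoveRx PathHunter D2 beta-arrestin cells (2,100/well) attached overnight, then compound-stimulated 90 min at 37 C in HBSS/10 mM HEPES/0.1% Tween-20 buffer; beta-galactosidase complementation read by luminescence after 1 h at ambient temperature. Dopamine 57 uM final (EC100) as control.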
* hit, by the source's call; ? = inconclusive; / = not tested or not shown; & = joins results of further samples; [ ] = dose if it differs, or a comment.

SMILES | CtBP-E1A inh | TRPML1 agonist | PINK1 expr mod | Six1-Eya2 inh | D2 potentiator | D2 ag
O=C(NCC1CCCO1)c1onc(CSc2ccc(F)cc2)c1C(=O)O (configuration not stated) | 3.8 | -0.5 | 0.5% | -1.0 | -22.7 | -2.2
Cc1cc(=O)oc2cc(OCC(=O)NC(Cc3c[nH]c4ccc(O)cc34)C(=O)O)c(Cl)cc12 (configuration not stated) | -5.2 | / | -0.9% | -8.3 | 8.9 | 9.0
CNS(=O)(=O)c1cccc(C(=O)OCc2cc(=O)oc3c(C)c(O)ccc23)c1 | -18.0 | 0.2 | 0.9% | -14.6 | -8.8 | 0.6
CCCCN1C(=O)Nc2ccccc2S1(=O)=O | 2.4 | 3.1 | 0.9% | 1.0 | -13.2 | -2.5
Cc1c(C(=O)c2ccccc2)c2ccccn2c1CCc1ccccn1 | 0.8 | 1.4 | 3.5% | -7.4 | -6.6 | -0.4
O=C(NC1CCOCC1)C1CCC(=O)N(Cc2ccc(Cl)cc2)C1 (configuration not stated) | -5.6 | 0.9 | 0.5% | 9.2 | -4.5 | -4.4
COc1ccc(C(C)=O)cc1COC(=O)c1ccc2ccccc2n1 | 4.1 | 0.9 | -2.2% | 5.0 | -7.5 | 3.2
CCN(CC)C1CCN(C(=O)c2ccc(OC3CCN(C(=O)CCOC)CC3)cc2)C1 (configuration not stated) | 0.0 | -0.6 | 0.5% | -2.7 | -7.1 | -0.3
COc1ccc(NC2CS(=O)(=O)CC2NCc2ccco2)cc1 (configuration not stated) | 2.0 | 3.4 | -0.4% | -1.0 | 4.8 | -0.8
O=C(O)c1cc(Sc2ccc(Br)cc2)nc2ccccc12 | / | 2.9 | 1.5% | -3.9 | -3.4 | 12.0
CC(=O)c1cccc(-c2cnc3c(NC=O)cc(-c4ccc(N(C)C)cc4)cn23)c1 | -29.5 | 3.0 | 1.6% | ? | 0.0 | 5.0
CCC1Sc2ccccc2N(CC(=O)NCCC2=CCCCC2)C1=O (configuration not stated) | 3.0 | 0.2 | -5.5%[38.3 µM] | -1.0 | -12.6 | -0.1
Cc1ccccc1C(=O)N1CCC(C(N)=O)CC1 | 2.5 | 1.1 | / | 1.3 | 7.8 | -1.7
O=C(COC(=O)c1ccccc1SCC(=O)NC1CCCCC1)NC1CCCCC1 | -7.3 | 1.6 | -0.6% | 5.4 | -4.0 | -0.1
COc1ccc(S(=O)(=O)ON=C2CC(C)(C)N(C(C)=O)C(C)(C)C2)cc1 | -15.6 | 0.9 | 2.2% | 11.4 | -10.3 | 1.2
COC(=O)c1ccc(OC)c(CSc2nnc(COc3ccc(Cl)cc3)o2)c1 | 3.3 | 7.6 | -1.4% | 10.1 | -2.3 | 1.0
CC(=O)Nc1ccc(S(=O)(=O)NCCc2csc(C)n2)cc1 | 9.2 | -0.4 | / | -0.7 | -13.1 | 0.5
O=C(/C=C/c1ccc(OCc2ccccc2)c(OCc2ccccc2)c1)c1cccnc1 | 6.5 | 0.5 | -0.7% | 12.1 | -16.3 | 2.1
CCn1cc(C(=O)OCC(=O)c2cc(C)n(-c3ccccc3F)c2C)c(=O)c2ccc(C)nc21 | 7.1 | 1.5 | 7.5% | ? | 0.8 | -5.5
NC(=O)N/N=C/c1ccccc1OCc1cccc2ccccc12 | / | 1.0 | 11.0% | -2.6 | -15.9 | -3.6
Cc1ccc(F)cc1C(=O)N1CCCCC1c1cc(C(=O)NCc2ccccc2)no1 (configuration not stated) | -1.1 | -0.6 | 3.5% | -2.3 | -1.4 | -3.8
CC(=O)Cn1cnc2scc(-c3ccc(C)c(C)c3)c2c1=O | / | 0.1 | -1.1% | 13.6 | -30.1 | -1.6
Cc1ccc(CN(C(=O)c2cc3ccccc3oc2=O)C2CCS(=O)(=O)C2)cc1 (configuration not stated) | 3.8 | -0.3 | 4.0%[38.3 µM] | 2.7 | 3.6 | -1.0
Cc1cc(C)cc(OC(=O)CS(=O)c2ccc(C(F)(F)F)cc2[N+](=O)[O-])c1 (configuration not stated) | -14.1 | -0.2 | -1.4% | -19.5 | 24.2 | 2.9
N=c1sccn1CC(=O)Nc1cc(Cl)ccc1Oc1ccccc1 | -1.3 | 0.2 | -1.4% | -5.2 | -24.2 | -4.9
SMILES | CtBP-E1A inh | TRPML1 agonist | PINK1 expr mod | Six1-Eya2 inh | D2 potentiator | D2 ag
COC(=O)c1ccc(CNC(=O)c2ccc(COc3ccccc3)cc2)cc1 | -20.6 | -0.5 | -1.9% | 0.0 | -7.9 | -4.8
C=CCNC(=O)c1sccc1Oc1ccc(F)cc1[N+](=O)[O-] | -5.5 | 0.6 | 1.6% | -1.1 | 2.1 | 0.9
CC(CCN1CCN(c2ccc(F)cc2)CC1)c1ccccc1 (configuration not stated) | -10.7 | 0.2 | ? | -26.2 | -32.6 | -4.9
O=C(Nc1ccc(OC(F)F)cc1)Nc1cccc(C(F)(F)F)c1 | -15.4 | 1.8 | ? | 6.3 | -20.9 | 0.0
Cc1cc(Cl)c(OCCCn2cncn2)c(Br)c1 | 4.9 | 1.8 | -1.3% | 2.1 | 10.4 | -2.6
C=CCn1c(SCCCc2ccccc2)nc2c1c(=O)[nH]c(=O)n2C | -6.6 | 2.9 | 0.2% | 4.7 | 4.6 | 1.4
O=C(COC(=O)c1cc2ccccc2cc1O)NCc1ccccc1 | 6.4 | 0.4 | ? | 2.5 | -4.1 | 1.4
CC(=O)c1ccc2oc3ccccc3c(=O)c2c1 | 4.6 | 0.8&-0.9 | 0.4% | 6.9 | -0.2 | -1.3
Cc1cc(C)c(NC(=O)COC(=O)CCc2ccc(S(=O)(=O)N3CCCCC3)cc2)c(C)c1 | 0.0 | 0.3 | 3.7% | 17.6 | -1.0 | -2.3
CCN(CC)S(=O)(=O)c1ccc(NC(=O)CC(NC(C)=O)c2ccccc2)cc1 (configuration not stated) | 0.0 | 0.8 | -1.9% | 24.6 | -36.7 | -3.0
COc1ccc2c(C)cc(SCC(=O)NCC3CCCO3)nc2c1 (configuration not stated) | -19.1 | 0.2 | -0.7% | -0.2 | -2.2 | -1.4
CCC(=O)Nc1c2c(nn1-c1ccc(OC)cc1)CSC2 | / | 0.5 | -0.2% | 5.9 | -3.5 | 1.5
COc1cc(NC(=O)CSc2nnc3ccccn23)cc(OC)c1OC | 3.9 | -1.0 | -0.4% | 4.2 | -5.6 | -1.9
O=C(CCNS(=O)(=O)c1ccccc1)N1CCOCC1 | 1.7 | 0.0 | 0.1% | 0.0 | -5.9 | -4.8
CC1C(=O)N2CCCc3cc(S(=O)(=O)N4CCC(C(N)=O)CC4)cc1c32 (configuration not stated) | -25.2 | 0.1&0.5 | -0.7%&0.0% | 3.7 | -14.9 | 4.7
CC(CCc1ccccc1)NC(=O)CCCn1ncn2c(cc3occc32)c1=O (configuration not stated) | -5.6 | -1.2 | 0.0% | 0.5 | -2.5 | -2.4
CC(=O)Nc1ccc(NC(=O)c2cc(-c3ccccc3)nc3ccccc23)cc1 | 0.4 | -1.1 | 8.9% | 4.3 | -13.8 | 0.9
Cc1ccc2oc(-c3cccc(NC(=S)NC(=O)c4cccs4)c3)nc2c1 | -4.6 | -0.3 | 13.3% | 9.0 | 2.0 | 0.4
CCOC(=O)C(NCCc1ccccc1)(NC(=O)CC)C(F)(F)F (configuration not stated) | 16.7 | 0.1 | 2.8% | 1.0 | 5.9 | 3.2
CCOc1ccccc1CNC(=O)c1cc2oc3ccccc3c2n1CC | -9.6 | 2.2&-0.6 | -0.7%&4.1% | -18.0 | 7.8 | 3.2
Cc1ncc([N+](=O)[O-])n1CCO | 7.8 | 0.0 | 0.9% | 0.0 | -1.6 | -5.9
COc1cc(NC(=O)c2ccc(-c3ccc(F)c(F)c3)c3ccoc23)cc(OC)c1OC | -6.4 | -0.2 | 5.9% | -6.7 | -6.0 | 3.8
CCOC(=O)c1ccc(NC(=O)NC(C)C2CCCO2)cc1 (configuration not stated) | -5.1 | -0.3 | 12.2%[38.3 µM] | -2.4 | -18.7 | -3.1
CC(C)CC1=C/C(=C/c2ccc(-c3ccccc3)o2)C(=O)O1 | -12.1 | 0.3 | -0.9% | ? | -10.3 | -2.3
O=C(NNc1nc(-c2ccc(Br)cc2)cs1)c1ccco1 | -0.7 | 3.8 | 5.3% | -14.9 | 14.7 | 9.8
SMILES | CtBP-E1A inh | TRPML1 agonist | PINK1 expr mod | Six1-Eya2 inh | D2 potentiator | D2 ag
Cc1nc(Cl)cc(N/N=C/c2ccc(O)cc2)n1 | / | / | 0.3% | -3.3 | 22.3 | 5.1
O=C(Nc1ccc(Cl)cc1)C1CCN(C(=O)NC2CCCCC2)CC1 | 2.1 | -0.2 | 16.3% | 1.7 | -6.5 | -5.0
Cc1cc(N/N=C/c2ccc(O)cc2O)c2ccccc2n1 | / | / | -0.8% | 16.7 | 10.2 | 0.3
COc1ccccc1NC(=O)c1cccc(N2C(=O)C3C4C=CC(C4)C3C2=O)c1 (configuration not stated) | -0.4 | -0.7 | -1.5% | 0.8 | -15.6 | -5.4
NC(=O)c1cccc(S(=O)(=O)N2CC(c3ccccc3)CC2=O)c1 (configuration not stated) | 7.6 | 0.6 | -0.2% | -0.6 | 0.8 | 6.2
CCCCN(CC)CCCNC(=O)c1ccc(CS(=O)(=O)c2ccccc2C)o1 | 2.5 | -0.5 | 0.6% | -3.3 | -19.9 | 3.2
